ClpP mod = qHTS Assay for Activators of ClpP; Potency, µM (highest dose often 57.5 µM), for inactives: at the top dose activity change, negative = active; 340,000 compounds, 1.9% hits; AID 651965, 2013; purified B. subtilis ClpP, FRET peptide cleavage, 20 min; active = well fitted falling curve with a large enough effect; inconclusive = small, poorly fitted or top-dose-only effect; inactive = no such curve, though single readings can be large or run the other way; also: potency is read from the fitted curve at half-maximal effect; the source files actives as falling curves though it sought activators and does not explain the sign; nearly all actives have a fitted effect of over 65% in size; many hits overshoot -100%
Target sequence (P80244 whole entry, looked up): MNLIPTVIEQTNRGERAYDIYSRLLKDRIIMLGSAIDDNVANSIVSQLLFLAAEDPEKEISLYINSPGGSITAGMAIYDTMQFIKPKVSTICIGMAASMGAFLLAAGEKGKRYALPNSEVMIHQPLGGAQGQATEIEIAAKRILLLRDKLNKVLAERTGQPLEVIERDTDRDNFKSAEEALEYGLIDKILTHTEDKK
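FRET quenching reversal measured ClpP activation: 10 microg/mL B. subtilis ClpP at pH 8 with the FRET-FV decapeptide, read at 430 nm after 320 nm excitation. The 20-min minus 0-min signal was scaled between DMSO/no-enzyme wells and ADEP (5.8 microM final).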
TRPV1 potentiator = potentiators of human vanilloid receptor 1 (TRPV1) | TRPV1-expressing cells, Fluo-8 calcium influx, capsaicin EC20 potentiation; host cell line not named in the record; control for the full effect not named in the record | 320,000 compounds, 0.02% hits | potentiation, % at 8.33 µM | Q8NER1; active means potentiation above 80%; inconclusive means 30% to 80%; inactive means below 30%; also: 0% is about no effect
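TRPV1-expressing cells were cultured overnight at 35.5C and loaded with Fluo-8 calcium dye for 40 to 90 min at room temperature. After a 10 s baseline, compound was added and calcium influx was read kinetically for 3 min (ex 480/em 520 nm).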
Sfp PPTase inh = blocks B. subtilis Sfp PPTase activity. AID 1490. 310,000 compounds, 3.5% hits. Potency, µM, without a hit: max response, negative = inhibition, usual class: inhibitors. Biochemical Sfp PPTase activity, qHTS. Q9F4F7; active = well fitted inhibition curve with a large enough effect; inconclusive = small, poorly fitted or top-dose-only effect, or another doubt; inactive = no such curve, though single readings can be large or run the other way;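 also: the enzyme is Sfp with the accession as filed and its product quenches rhodamine fluorescence; potency is read from the fitted curve at half-maximal effect; 0% = enzyme reaction without inhibitor and -100% = no enzyme wells; top concentration of the series not given in the record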
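Compounds were incubated with enzyme (final 15 nM) for 15 min at room temperature before substrate addition started the reaction. Fluorescence at 525 nm excitation, 598 nm emission was recorded immediately and after 30 minutes.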
gsp antag = antagonists of gsp mutant (McCune-Albright syndrome); gsp-mutant cells, cAMP HTRF, 30 min; control for the full effect not named in the record; Potency, µM (highest dose often 76.9 µM), for the others: at the highest dose activity change, negative = inhibition, actives largely listed as inhibitors; 340,000 compounds, 0.4% hits; active = falling curve of any shape with a large fitted effect; inconclusive = falling curve, mostly with a smaller effect; inactive = flat or rising curve; cell line not stated here;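 also: intracellular cAMP measured with PDE inhibitor Ro 20-1724 present during compound exposure; potency is read from the fitted curve at half-maximal effect; % is scaled to controls: 0 for no effect and ±100 for the full control effect; nearly all actives have a fitted effect of over 65% in size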
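Cells in G418 medium, seeded 16-24 h, 37C; buffer exchange to DPBS + 1 mM CaCl2, 0.5 mM MgCl2, 0.05% BSA; cpds in DMSO + […] (300 uM stock), 30 min 37C; HTRF cAMP detection.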
Menin MLL FP FL = displaces fluorescein MLL peptide from human menin; Fluorescence polarization, fluorescein-MLL peptide displacement from menin; FP activity change, % at 61.4 µM; 290,000 tested, under 10 active; AID 1766; inconclusive = falling polarisation curve, or a change in total fluorescence; inactive = total fluorescence flat and polarisation flat or rising; no compound was filed as active; the % refers to the polarisation; negative = inhibition;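 also: % of control where 0% means no effect; inhibitors lower the polarisation; unlabelled MLL peptide was the positive control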
D2 PAM = human D2 receptor positive allosteric modulation. P14416. DiscoveRx D2 beta-arrestin cells, luminescence, 90 min; 100% = 57 uM dopamine signal. potentiation, % (no concentration beside the values). 360,000 compounds, 0.23% hits. AID 624464; active = potentiation of 50% or more; inconclusive = 30% to 50%; inactive = 30% or less;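 also: compound concentration not given in the record; tested on top of an EC20 dose of dopamine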
Target sequence (P14416 whole entry, looked up): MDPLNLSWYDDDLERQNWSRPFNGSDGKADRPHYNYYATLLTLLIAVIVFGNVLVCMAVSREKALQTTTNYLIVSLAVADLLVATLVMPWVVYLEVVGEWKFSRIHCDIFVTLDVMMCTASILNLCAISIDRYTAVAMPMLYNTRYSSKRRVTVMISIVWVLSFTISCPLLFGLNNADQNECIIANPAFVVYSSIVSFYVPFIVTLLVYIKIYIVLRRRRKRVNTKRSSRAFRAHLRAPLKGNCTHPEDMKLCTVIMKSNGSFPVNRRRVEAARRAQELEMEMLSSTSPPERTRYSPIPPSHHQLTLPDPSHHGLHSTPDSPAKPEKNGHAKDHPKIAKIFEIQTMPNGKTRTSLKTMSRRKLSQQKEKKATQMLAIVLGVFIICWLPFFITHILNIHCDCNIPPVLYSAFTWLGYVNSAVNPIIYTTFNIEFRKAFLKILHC
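PathHunter D2 cells, attached overnight at 37 deg C, received compound in DMSO plus dopamine at EC20 (50 nM final) for 90 min at 37 deg C. Beta-arrestin recruitment was read as luminescence after 1 h with detection reagent at ambient temperature.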
gsp ag = agonists of gsp mutant (McCune-Albright syndrome); gsp mutant cells, cAMP HTRF, 30 min; control for the full effect not named in the record; Potency, µM (top dose mostly 76.9 µM), for inactives: at the highest dose activation (cAMP increase), usual class: activators; 340,000 compounds, 0.13% hits; AID 624287; active = well fitted activation curve with a large enough effect; inconclusive = small, poorly fitted or top-dose-only effect, or another doubt; inactive = no such curve, though single readings can be large or run the other way; cell line not stated here;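 also: phosphodiesterase inhibitor Ro 20-1724 added with compounds to block cAMP breakdown; potency is read from the fitted curve at half-maximal effect; nearly all actives have a fitted effect of over 60% in size; about a fifth of the inactives were tested at one dose only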
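Cells in DMEM/10% FBS with G418 were pretreated with compounds in DMSO plus […] (300 uM stock) for 30 min at 37C. cAMP was measured by HTRF (cAMP-d2 plus anti-cAMP antibody-K) after 30 min at room temperature.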
Active calls of the source: *; ? = inconclusive; / = no result given; & = joins results of further samples; [ ] = another dose, or the depositor's remark.

| molecule | ClpP mod | TRPV1 potentiator | Sfp PPTase inh | gsp antag | Menin MLL FP FL | D2 PAM | gsp ag |
| --- | --- | --- | --- | --- | --- | --- | --- |
| O=C(Cn1cc([N+](=O)[O-])cn1)N1N=C(C(F)F)CC1(O)C(F)F (stereo unspecified) | -1.8% | 2 | -10% | 9% | 1.3 | -4 | -61%[inhibitor] |
| CC(C)(C)c1cccc(P(=O)(c2ccccc2)c2ccccc2)c1O | / | / | 18% | -6% | 3.0 | -4 | 1%[15.4 µM] |
| O=C(O)c1ccc(S(=O)(=O)c2ccccc2)s1 | / | / | / | 6% | / | -8 | 5% |
| Cc1ccccc1NC(=O)c1cc(S(=O)(=O)c2ccccc2)ccc1Cl | -2.4% | -2 | 3% | -7% | 0.6 | -14 | -49%[inhibitor] |
| CS(=O)(=O)N1N=C(c2cccs2)CC1c1ccco1 (stereo unspecified) | -0.3% | 10 | 10µM* | -3% | 15 | -9 | 6%[15.4 µM] |
| C/C(=N\NC(=O)CNC(=O)C1COc2ccccc2O1)c1ccco1 (stereo unspecified) | / | 15 | 4% | 5% | 5.3 | -3 | ? |
| C/C(=C\c1ccccc1)C(=O)NCCCn1ccnc1 | 0.2% | -3 | 20% | -1% | 0.6 | -10 | 1% |
| COc1ccc(-n2nnnc2S(=O)(=O)Cc2ccc(C(=O)O)cc2)cc1 | 0.2% | 1 | -5% | -5% | -1.5 | -12 | -1% |
| CNC(=S)Nc1cccc(-c2cnc3ccccc3n2)c1 | / | 9 | 1% | 1% | 0.1 | -2 | -5%[15.4 µM] |
| CCOC(=O)C1CCN(C(=O)CN2C(=O)c3ccccc3Sc3ncccc32)CC1 | -1.1% | -3 | 10% | -5% | -2.7 | -3 | 21% |
| COC(=O)[C@@H]1[C@@H](C)N(Cc2ccccc2)C(=O)N[C@H]1c1cccc(C(F)(F)F)c1 | -0.2% | -19 | 19%&16% | 3% | 0.1[11.7 µM] | -9 | / |
| CCCc1cc(N2CCC(C(N)=O)CC2)nc(-c2ccccc2)n1 | / | -17 | -9% | -9% | 4.1 | -2 | 3%[15.4 µM] |
| Cc1ccc(C(=O)N2CCCCC2)cc1S(=O)(=O)N1CCCC1 | 1.0% | -6 | 20% | -7% | / | -8 | 23% |
| COc1cccc(C(=O)NCCS(=O)(=O)N(C)C2CCCCC2)c1 | -1.3% | 2 | / | 8% | / | 2 | -25% |
| Cc1ccccc1NC(=O)CN1CCCC1 | -0.7% | / | / | / | / | -23 | -85%[inhibitor] |
| CC(=O)c1ccc(S(=O)(=O)N2CCN(C(=O)CSC(=S)N3CCCC3)CC2)cc1 | -1.0% | 2 | / | -3% | / | -8 | -4% |
| O=C1C2CC=CCC2C(=O)N1c1n[nH]c(-c2ccccc2)n1 (stereo unspecified) | -1.0% | 17 | 2% | 18% | 2.5 | 7 | 20% |
| CCOC(=O)Cc1csc(NC(=O)c2c(-c3c(F)cccc3Cl)noc2C)n1 | -2.3% | 4 | 15% | -18% | 8.9 | 3 | 7% |
| Cc1ccc(C(=O)N2CCN(c3ccc(N4CCOCC4)nn3)CC2)cc1C | ? | 20 | / | 1% | / | 12 | -59% |
| Cc1ccc(NC(=S)N(CCN(C)C)Cc2cccs2)c(C)c1 | / | 1 | 32µM* | 10% | 1.8 | -8 | -6%[15.4 µM] |
| C=CCOc1ccc(/C=N/NC(=O)CN2CCCCC2)cc1OC | 0.5% | 3 | 11% | 3% | 3.0 | 6 | -3%[15.4 µM] |
| CCOc1nc2cnccc2n(CC(=O)Nc2c(C)cccc2CC)c1=O | -2.5% | 12 | 17% | 0% | / | -7 | 24% |
| COc1ccc(NCc2n[nH]c(=O)c3ccccc23)cc1 | -3.6% | 5 | 10% | -6% | -0.6 | -18 | 20% |
| CCN(C(=O)COC(=O)C1CC1C)c1c(N)n(Cc2ccccc2)c(=O)[nH]c1=O (stereo unspecified) | -0.3% | 1 | / | 20% | / | 17 | -59%[inhibitor] |
| Cc1ccc(NC(=O)c2nc(C)n(-c3ccc([N+](=O)[O-])cc3)n2)cc1 | 0.7% | -2 | -7% | -4% | 0.8 | -10 | ? |
| CCOC(=O)N1CCN(C(=O)CSc2ccc3nnc(CCNC(=O)c4ccc(OC)cc4)n3n2)CC1 | / | -6 | ? | 10% | 2.1 | -5 | 42% |
| COc1ccc(-n2c(Cc3cccn3C)nnc2SCC(=O)NCc2ccccc2Cl)cc1 | 2.3% | -5 | -11% | -23% | -0.1 | 2 | ? |
| Cc1ccc(-n2c(-c3cccc(C)c3)n[nH]c2=S)cc1 | -12% | 3 | -8% | -4% | 3.1 | -1 | 32% |
| O=C(Cn1cc(C(=O)C2CC2)c2ccccc21)NCC1CCCO1 (stereo unspecified) | -3.4% | -1 | 27% | -4% | -1.4 | -4 | -53%[inhibitor] |
| N#Cc1ccc(S(=O)(=O)N2CCCN(c3nc4ccc(Cl)cc4s3)CC2)cc1 | -3.0% | -23 | -20% | -3% | -1.2 | 1 | -9%[15.4 µM] |
| COc1cccc(-c2ncc3ccccc3c2COC(=O)N2CCCCC2)c1 | -6.9% | -22 | / | 6% | / | -13 | / |
| O=C(O)/C=C/C(=O)Nc1ccc(OC(F)(F)Cl)cc1 | / | 1 | 11% | 12% | 5.9 | -4 | -8% |
| N/C(=N\OC(=O)Nc1ccc(Cl)c(Cl)c1)c1ncc(C(F)(F)F)cc1Cl | 0.9% | -6 | -6% | 6% | 4.2 | -20 | 0% |
| COc1ccc(NC(=O)Nc2cc(C)ccc2F)cc1 | 1.1% | -14 | 6% | -4% | 1.7 | -10 | 23% |
| O=C(NCc1ccc(Cl)cc1)NCc1ccc(Cl)cc1 | / | -3 | -3% | 15% | 2.2 | 1 | -12%[15.4 µM] |
| c1ccc(C2CCC3(CC2)Oc2ccccc2C2CC(c4cccnc4)=NN23)cc1 (stereo unspecified) | / | -9 | -12% | / | 3.9 | / | / |
| O=C(c1ccco1)N1CCN(C(=O)C2CCN(S(=O)(=O)c3cnc[nH]3)CC2)CC1 | -1.0% | 10 | 3% | 8% | -1.6 | -19 | 1% |
| COc1cccc(OCc2cc(C(=O)N(C)Cc3nccn3C)no2)c1 | 0.6% | -13 | 4% | -4% | 0.8 | -9 | ? |
| COc1ccc2cc(/C=N/NC(=O)CN(c3ccccc3C)S(=O)(=O)c3ccccc3)c(Cl)nc2c1 | 0.2% | -6 | -13% | -11% | 15 | -3 | 13%[15.4 µM] |
| O=C(COC(=O)/C=C/c1cccc(C(F)(F)F)c1)NCCN1C(=O)CSC1=O | -2.5% | 4 | / | 3% | / | -4 | -20% |
| Cn1cc(C(=O)C(=O)NCCc2ccccc2)c2ccccc21 | / | -6 | 3% | 16% | 0.3 | -1 | -22% |
| C=CCn1cc(/C=N/NC(=O)COc2cccc3cccnc23)c2ccccc21 | 1.4% | 2 | ? | -4% | 21 | -5 | ? |
| O=C(CNC(=O)c1ccccc1)NCC(O)c1ccc([N+](=O)[O-])cc1 (stereo unspecified) | / | 8 | 1% | 7% | 0.8 | -1 | -15%[15.4 µM] |
| O=C(CCOc1ccccc1)N1CCN(S(=O)(=O)c2cccs2)CC1 | -4.1% | 13 | -2% | 5% | 1.7 | -9 | 10% |
| O=C(CCN1CCCC1=O)NC1CCCc2c1cnn2-c1ccc(F)cc1F (stereo unspecified) | -1.6% | -4 | 10% | 3% | 5.0 | -3 | -1% |
| CCN1CCc2c(OCC(=O)N3CCC(C)CC3)cccc2C1=O | / | 5 | 15% | 9% | -2.2 | 3 | ? |
| Cc1oc(-c2ccc(Cl)cc2)nc1CS(=O)CC(=O)NCc1ccccc1 (stereo unspecified) | -7.2% | ? | 5% | 3% | / | -3 | ? |
| Cc1nnc(-c2cnn(-c3ccccc3)c2N)n1Cc1cccc(C(F)(F)F)c1 | 0.9% | 2 | 13% | -2% | 4.9 | 0 | -2% |
| O=C(CNc1cccc(S(=O)(=O)N2CCCC2)c1)Nc1ccc(C(F)(F)F)cc1 | -3.1% | -8 | / | -25% | / | -23 | -19% |
| C=CCOc1ccc(Oc2cc(C)nc(SC)n2)nn1 | 0.8% | 6 | 14% | -3% | -0.7 | 26 | -20% |

Following part
| molecule | ClpP mod | TRPV1 potentiator | Sfp PPTase inh | gsp antag | Menin MLL FP FL | D2 PAM | gsp ag |
| --- | --- | --- | --- | --- | --- | --- | --- |
| Cc1cc(C)nc(/N=C(\N)N2CCc3ccccc32)n1 | -1.2% | -5 | 16% | -7% | -5.3 | -4 | -30% |
| COc1ccc(-c2cc(-c3cccs3)nc3sc(C#N)c(N)c23)cc1 | -4.6% | 15 | ? | 16% | / | 4 | ? |
| CCc1ccc(C2N3CC4([N+](=O)[O-])CN2CC([N+](=O)[O-])(C3)C4(C)C)cc1 (stereo unspecified) | -1.9% | 1 | 6% | 3% | 1.6 | 1 | 6% |
| Cc1cc(/C=C2\C(=N)N3N=C(C(C)C)SC3=NC2=O)c(C)n1-c1ccccc1 | / | 3 | 12% | -5% | 5.2 | -5 | 12% |
| COCCNC(=S)N1CCOCC1 | -1.6% | -1 | 10% | 12% | -0.6 | -3 | 26% |
| COc1ccc(CCNC(=O)CSc2ccc(-c3ccco3)nn2)cc1 | / | 0 | -61% | -7% | 5.7 | -3 | 5%[15.4 µM] |
| COCCn1c(SCC(=O)c2c(-c3ccccc3)n(C)c3ccccc23)nnc1-c1ccncc1 | 0.3% | -1 | -3% | 0% | 3.4 | -10 | 0% |
| NC(=O)c1ccc(NC(=O)COc2cccc3ccccc23)cc1 | -2.5% | 6 | 18% | -6% | 1.6 | -1 | 15% |
| O=C(NC(=S)Nc1ccc(S(=O)(=O)Nc2nccs2)cc1)c1cccnc1 | / | 6 | -20% | -12% | 2.2 | -14 | 10%[15.4 µM] |
| COCCCN1C(=O)c2[nH]nc(-c3cc(C)cc(C)c3O)c2C1c1ccc(O)c(OC)c1 (stereo unspecified) | -1.0% | 12 | -2% | 4% | -0.9 | -9 | -3% |
| Cc1ccc(Cl)cc1N1CCN(C(=O)CCC(=O)O)CC1 | -3.4% | -9 | -5% | -2% | 0.4 | -5 | -19% |
| CCN(CC)C(=O)CS(=O)CC(=O)Nc1cc(OCCOC)c(Cl)cc1Cl (stereo unspecified) | / | 6 | 2% | -13% | 0.0 | 0 | ? |
| CCc1ccc(OCCOCC(O)CNC2CCCC2)cc1 (stereo unspecified) | / | 4 | 5% | 9% | 0.4 | -8 | -16%[15.4 µM] |

Assay outcomes (PubChem BioAssay)
